HIV Env fusion: inhibitors of HIV-1 Env-driven cell-cell fusion, primary screen, HeLa-JRFL effector, CEM21 target cells, luciferase | inhibition, % at 12.3 µM | hit rate 1.1% among 360,000;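 active means mean replicate inhibition score of at least 50 and every replicate individually at or above 50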;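 further: 0% = plate neutral controls and 100% = maraviroc near 300 nM; one replicate is shown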
MT1-MMP act inh: blockers of MT1-MMP proenzyme processing, primary screen, HT1080 RFP-PRO-GFP cells, GFP/RFP fluorescence; AID 651647, 2012; GFP/RFP ratio fluorescence, overnight; percent of plate control window, DMSO zero; Matrix metalloproteinase-14 (Homo sapiens), P50281; GFP/RFP ratio change, % at 20 µM; hit rate 0.061% among 360,000;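 active means GFP/RFP ratio change of at least 30% with cell ATP level not reduced by more than half and red fluorescence within 50% of control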; further: strong numbers were not always called active
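Compound: 20 µM single dose, 1% DMSO / System: HT1080 RFP-PRO-GFP cells / Controls: DMSO and RFP-L50D-GFP cell wells / Read-out basis: GFP/RFP fluorescence ratio / Schedule: overnight compound exposure at 37 °C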
UUG fidelity: modulators of yeast start codon fidelity, primary screen, whole organism, S. cerevisiae, single point, plate reader | hit rate 0.13% among 350,000 | activity score, % at 18.7 µM | S. cerevisiae UUG-firefly luciferase reporter, luminescence/redox ratio;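 active means replicate mean at a twofold rise or more, about +100% in these data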;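 further: firefly luciferase made from a UUG start codon reports start codon fidelity; reporter light over untreated wells divided by growth signal over untreated wells; some hits fall short of that in this replicate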
Rce1 inhib: yeast Rce1p protease inhibitors, primary screen, biochemical, fluorescence, cell-free homogeneous; hit rate 0.27% among 290,000; yeast membranes, quenched prenylated peptide cleavage fluorescence; calls only; CAAX prenyl protease 2 (Saccharomyces cerevisiae (strain ATCC 204508 / S288c)), Q03530;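 active means fall in fluorescence gain of 50% or more versus controls, with final raw signal at or below 3038400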;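 further: plate controls were neutral control wells for no effect and wells lacking membranes for full effect; tested at 10 µM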
PABP FP inh: PABP poly(A) RNA binding inhibitors, primary screen, biochemical, fluorescence polarization, uHTS; AID 2014, 2009; inhibition, % at 35 µM; hit rate 1% among 290,000; Polyadenylate-binding protein 1 (Homo sapiens), P11940;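 active means 50% or more with normal probe brightness, or confirmed in later tests; about a fifth of its hits are not listed in these tables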;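 further: calls also rest on retests at 20 µM and on dose response follow-up; controls were probe without protein and protein plus probe with vehicle; some compounds called inactive have numbers as strong as hits; many hits fall short of the cut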
Target sequence (P11940 whole entry, looked up): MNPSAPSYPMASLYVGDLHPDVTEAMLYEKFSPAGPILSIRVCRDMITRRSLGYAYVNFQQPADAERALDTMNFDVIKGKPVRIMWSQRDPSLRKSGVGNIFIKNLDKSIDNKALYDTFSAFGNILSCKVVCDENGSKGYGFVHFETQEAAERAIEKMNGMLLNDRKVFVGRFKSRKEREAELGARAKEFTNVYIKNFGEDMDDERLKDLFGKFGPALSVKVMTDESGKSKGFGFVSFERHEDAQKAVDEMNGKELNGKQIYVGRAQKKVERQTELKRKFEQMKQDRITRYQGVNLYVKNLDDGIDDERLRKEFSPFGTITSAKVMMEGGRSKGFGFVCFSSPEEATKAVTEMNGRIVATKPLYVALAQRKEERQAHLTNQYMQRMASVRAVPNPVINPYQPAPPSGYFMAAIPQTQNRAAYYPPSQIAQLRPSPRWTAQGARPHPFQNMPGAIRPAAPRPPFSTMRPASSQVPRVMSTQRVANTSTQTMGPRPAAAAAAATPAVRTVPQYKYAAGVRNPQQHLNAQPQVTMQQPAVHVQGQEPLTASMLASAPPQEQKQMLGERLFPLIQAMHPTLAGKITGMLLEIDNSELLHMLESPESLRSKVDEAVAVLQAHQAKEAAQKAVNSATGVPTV
eIF4H FP inh: human eIF4H binding inhibitors, primary screen, translation initiation inhibitor project, biochemical, uHTS, fluorescence polarization; AID 2012, 2009; eIF4H fluorescence polarization binding assay; inhibition, % at 35 µM; Eukaryotic translation initiation factor 4H (Homo sapiens), Q15056; hit rate 0.94% among 290,000;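 active means 50% or more with normal probe brightness, or confirmed in later tests; about a fifth of its hits are not listed in these tables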;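 further: calls also rest on retests at 20 µM and on dose response follow-up; 0% = protein and probe with vehicle and 100% = probe without protein; strong numbers were not always called active; many hits fall short of the cut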
CSC inhib: cancer stem cell viability inhibitors, primary screen, luminescence | cancer stem cell-like cells viability | AID 2717, 2010 | hit rate 1.1% among 300,000 | inhibition, % at 7.5 µM;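 active means mean at 75% or more and at least half the replicates too; tested in HMLE shEcad cells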;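 further: 0% = median of negative and 100% = median of positive control wells; the first replicate is given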
eIF4H FP inh retest: second read-out of eIF4H FP inh, no call of its own (marks repeat the call); inhibition, %; compound at 20 µM; confirmation average;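 mean of two retest wells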
PABP FP inh retest: also measured in PABP FP inh; calls as there; inhibition, %; compound at 20 µM; confirmation repeats;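 mean of two retest wells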
MT1-MMP act inh RFP: recorded beside MT1-MMP act inh, whose call it bears; RFP signal change, %; measured here: RFP expression control read;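 0 = vehicle wells; hits needed this value within 50% of zero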
The depositor's hits bear a star; i = inactive; nt = no result given.

SMILES | HIV Env fusion | MT1-MMP act inh | MT1-MMP act inh RFP | UUG fidelity | Rce1 inhib | PABP FP inh | eIF4H FP inh | CSC inhib | others
CCn1cc(C(=O)N2CC(C)CC(C)C2)c(=O)c2cc(S(=O)(=O)N3CCCC3)ccc21 (stereo unspecified) | 1 | -3 | 2 | -19 | i | -11 | 0 | -27
Cn1c(C(=O)N2CCCC(Nc3ccc(F)cc3)C2)cc2ccccc21 (stereo unspecified) | 4 | -3 | 3 | -4 | i | -16 | 2 | 17
Clc1cc(Br)ccc1OCCCNCc1ccccc1 | 43 | -4 | 0 | -7 | i | -5 | 14 | 37
COCCNc1nc(-n2nc(C)cc2C)nc2sc3c(c12)CCCC3 | nt | 6 | 0 | -39 | i | 4 | -8 | 10
O=C(OC1Cn2c(=O)ccc(=O)n2C1)c1ccc([N+](=O)[O-])cc1 | -4 | 0 | 2 | nt | i | -7 | 2 | -10
COc1ccc(C(=O)N2CCC(C(=O)NC3CC3)CC2)cc1 | -1 | -3 | 1 | -12 | i | -5 | -5 | 1
COc1cc(C(=O)Nc2ccc(N3CCOCC3)cc2)ccc1OCc1c(C)noc1C | 21 | 6 | 4 | 1 | i | 6 | -7 | 3
Clc1cc(Br)ccc1OCCOCCOc1cccc2cccnc12 | nt | -1 | 0 | -1 | i | 1 | 2 | 44
N#C/C(=C/c1ccc(OCc2ccccc2)cc1)C(=O)NC1CCCCC1 | -91 | 4 | 0 | nt | i | 2 | -6 | 16
COc1ccc(N2CC(C(=O)N/N=C/c3ccc([N+](=O)[O-])cc3)CC2=O)cc1 (stereo unspecified) | -4 | 2 | 0 | nt | i | -1 | -14 | 19
CCNc1ccc(C(=O)OCC(=O)Nc2cc(C)on2)cc1[N+](=O)[O-] | nt | 3 | 0 | -19 | nt | nt | nt | -15
O=C(Cn1nnc(-c2cccs2)n1)N1CCOCC1 | -16 | 0 | 7 | nt | i | 0 | 0 | -2
COc1ccc(CC(=O)N(c2ccccc2)c2nc(C)cs2)cc1 | 14 | -2 | -4 | -4 | i | 2 | -2 | -9
O=C(CN1CCN(C(=O)c2ccc(-c3nc4ccccc4s3)o2)CC1)Nc1cccc(F)c1 | -8 | 0 | 6 | 9 | nt | nt | nt | nt
CC12CCC(C(=O)NCCCN3CCOCC3)(OC1=O)C2(C)C (stereo unspecified) | -29 | 8 | 3 | -16 | i | 5 | 4 | -8
CCOC(=O)N1CCC(N2CC34C=CC(O3)C(C(=O)Nc3ccc(F)cc3)C4C2=O)CC1 (stereo unspecified) | nt | 11 | 10 | -16 | i | 1 | -2 | 8
CCN(CC)c1ccc(/C=N/N2CCN(Cc3ccccc3)CC2)c(O)c1 | 12 | 9 | -4 | nt | i | -9 | -6 | 54
COc1ccc(/C=C2\SC(=S)N(CC(=O)N(C)C3CCS(=O)(=O)C3)C2=O)cc1 (stereo unspecified) | -7 | 0 | 1 | -16 | i | 2 | -17 | -7
CC(C)c1ccc(NS(=O)(=O)c2ccc3c(c2)NC(=O)CO3)cc1 | -25 | 4 | -2 | -10 | i | 0 | -10 | nt
CC(C)(C)SCCNS(=O)(=O)c1ccc(Cl)cc1 | -6 | 1 | 4 | nt | i | 4 | -2 | -11
COc1ccccc1C1NC(=O)CS1 (stereo unspecified) | nt | 1 | 6 | 2 | i | -3 | 12 | -3
COc1ccc(-c2nc3cc([N+](=O)[O-])ccc3o2)cc1 | -176 | 2 | -3 | nt | i | 2 | 6 | -4
CCN(CC)c1c([N+](=O)[O-])ncn1C | nt | 2 | 3 | -8 | i | -8 | -2 | 7
O=C(Nc1nnc(C2CC2)s1)C1CCCO1 (stereo unspecified) | -24 | 4 | -1 | -18 | i | 69 | 0.7* | nt | eIF4H FP inh retest=93*;PABP FP inh retest=24
CC(=O)N1CCN(C(=O)c2cc(S(=O)(=O)N3CCN(c4ccccc4)CC3)ccc2Cl)CC1 | -45 | 1 | 3 | 4 | nt | nt | nt | nt

10 consecutive entries out of the list so far:
SMILES | HIV Env fusion | MT1-MMP act inh | MT1-MMP act inh RFP | UUG fidelity | Rce1 inhib | PABP FP inh | eIF4H FP inh | CSC inhib | others
CCn1cc(C(=O)N2CC(C)CC(C)C2)c(=O)c2cc(S(=O)(=O)N3CCCC3)ccc21 (stereo unspecified) | 1 | -3 | 2 | -19 | i | -11 | 0 | -27
Cn1c(C(=O)N2CCCC(Nc3ccc(F)cc3)C2)cc2ccccc21 (stereo unspecified) | 4 | -3 | 3 | -4 | i | -16 | 2 | 17
Clc1cc(Br)ccc1OCCCNCc1ccccc1 | 43 | -4 | 0 | -7 | i | -5 | 14 | 37
COCCNc1nc(-n2nc(C)cc2C)nc2sc3c(c12)CCCC3 | nt | 6 | 0 | -39 | i | 4 | -8 | 10
O=C(OC1Cn2c(=O)ccc(=O)n2C1)c1ccc([N+](=O)[O-])cc1 | -4 | 0 | 2 | nt | i | -7 | 2 | -10
COc1ccc(C(=O)N2CCC(C(=O)NC3CC3)CC2)cc1 | -1 | -3 | 1 | -12 | i | -5 | -5 | 1
COc1cc(C(=O)Nc2ccc(N3CCOCC3)cc2)ccc1OCc1c(C)noc1C | 21 | 6 | 4 | 1 | i | 6 | -7 | 3
Clc1cc(Br)ccc1OCCOCCOc1cccc2cccnc12 | nt | -1 | 0 | -1 | i | 1 | 2 | 44
N#C/C(=C/c1ccc(OCc2ccccc2)cc1)C(=O)NC1CCCCC1 | -91 | 4 | 0 | nt | i | 2 | -6 | 16
COc1ccc(N2CC(C(=O)N/N=C/c3ccc([N+](=O)[O-])cc3)CC2=O)cc1 (stereo unspecified) | -4 | 2 | 0 | nt | i | -1 | -14 | 19

Further entries follow.
SMILES | HIV Env fusion | MT1-MMP act inh | MT1-MMP act inh RFP | UUG fidelity | Rce1 inhib | PABP FP inh | eIF4H FP inh | CSC inhib | others
COc1cc2c(cc1OC)C(C)N(C(=O)CCN1C(=O)C3C4C=CC(C4)C3C1=O)CC2 (stereo unspecified) | nt | 11 | 8 | 5 | nt | -1 | -10 | -3
O=C(CCNC(=O)Cn1ccc2ccccc2c1=O)NCCc1ccccc1Cl | nt | 3 | -2 | nt | i | -43 | 12 | -6
N#C/C(=C/c1cn[nH]c1-c1cccc(Br)c1)C(=O)O | 7 | 7 | 4 | -5 | i | 17 | 2 | -2
COc1ccccc1N1CCN(S(=O)(=O)c2ccccc2)CC1 | 27 | 2 | 4 | 3 | i | -5 | 1 | -2
Cc1ccc2cc(CN(CCN(C)C)C(=S)Nc3ccccc3)c(=O)[nH]c2c1C | -19 | 1 | 0 | -18 | i | -12 | -6 | 0
CN(C)S(=O)(=O)c1ccc(C(=O)OCCn2cnc3c2c(=O)n(C)c(=O)n3C)cc1 | -2 | 3 | -6 | 4 | i | 43 | -6 | -12
O=C(COc1cccc(C(F)(F)F)c1)NNC(=O)Cn1c(=O)cnc2ccccc21 | -6 | 4 | 0 | -18 | i | nt | nt | -14
Cc1ccccc1NS(=O)(=O)c1ccc(C(=O)N2CCCCCCC2)cc1 | 9 | 3 | -7 | 1 | i | nt | nt | 2
CNc1cnc(-c2ccc(O)c(OC)c2)cn1 | -55 | 5 | 10 | 1 | nt | nt | nt | nt
COc1ccc(-c2cccc(C3CC=CC4C3C(=O)N(Cc3ccccc3)C4c3ccc(OC)c(Cl)c3)c2)cc1 (stereo unspecified) | 8 | -1 | -8 | -21 | i | -2 | -3 | 12
O=[N+]([O-])c1cnccc1Nc1cccc(F)c1 | 1 | -3 | 1 | 19 | i | 1 | 0 | 11
COc1cc(C(C)=O)ccc1Oc1ncccn1 | 3 | 1 | 4 | -25 | i | 1 | 0 | 0
CC(C)Cc1cc(C(=O)Nc2ccc3c(c2)OCO3)no1 | -184 | 2 | 2 | -48 | i | 6 | -2 | 122*
Cc1ncc([N+](=O)[O-])n1CCOC(=O)c1ccc(Cl)cc1Cl | nt | -1 | -1 | -13 | i | -5 | -14 | -11
O=C(CSc1nc2ccccc2c(=O)n1CCCN1CCOCC1)c1c[nH]c2ccccc12 | 18 | -10 | -11 | nt | i | 4 | 3 | -5
Cc1ncc(CO)c2cc(S(=O)(=O)c3ccc(F)cc3)c(=O)oc12 | 1 | -1 | 9 | -18 | i | -14 | -1 | 2
COc1ccccc1/C=C/C=N/n1c(C2CCCCC2)n[nH]c1=S | 22 | 1 | 1 | -15 | i | -24 | -2 | 1
N#CC1=C(N)N(c2ccccc2)C2=C(C(=O)CCC2)C1c1cccs1 (stereo unspecified) | -64 | -4 | 9 | 1 | i | 111 | 93 | -7 | eIF4H FP inh retest=22;PABP FP inh retest=28
COC(=O)c1ccc2c(c1)S(=O)(=O)NC(=NCCCN1CCOCC1)S2 | -19 | -2 | 3 | -26 | i | 5 | -6 | -10
Cc1ccc(F)c(Cn2cnc3c(cnn3C(C)(C)C)c2=O)c1Cl | 32 | -1 | -9 | 6 | nt | nt | nt | 27
O=C(NCC(c1cccs1)N1CCOCC1)c1ccc([N+](=O)[O-])cc1 (stereo unspecified) | 7 | -4 | 1 | nt | i | 8 | 0 | -4
COC(=O)c1ccccc1NS(=O)(=O)c1ccc2[nH]c(=O)[nH]c2c1 | -9 | -4 | -6 | nt | i | -6 | 12 | -5
O=C1CN(C(=O)NCC(=O)N[C@H](Cc2ccccc2)C(=O)O)c2ccccc2N1 | nt | 0 | 4 | -24 | i | 5 | -1 | 2
O=C(C1CCCN(S(=O)(=O)c2cc(Cl)ccc2Cl)C1)N1CCOCC1 (stereo unspecified) | -31 | 3 | -2 | -11 | i | 83 | -9 | -3 | eIF4H FP inh retest=-9;PABP FP inh retest=4
COc1cc2c(cc1OC)C(c1cccs1)N(C(=S)NC(C)C)CC2 (stereo unspecified) | -39 | -2 | 0 | nt | i | 3 | -3 | -6
(more compounds)
SMILES | HIV Env fusion | MT1-MMP act inh | MT1-MMP act inh RFP | UUG fidelity | Rce1 inhib | PABP FP inh | eIF4H FP inh | CSC inhib | others
Cc1ccc(C(=O)N/N=C/c2cccnc2)cc1Cl | -27 | 5 | 4 | -15 | nt | nt | nt | nt
Cc1ccc(CNC(=O)CCNS(=O)(=O)c2ccc(Br)s2)cc1 | 20 | -1 | 4 | nt | i | 7 | -12 | -21
O=C(NC1CCS(=O)(=O)C1)Oc1ccccc1 (stereo unspecified) | nt | -3 | 0 | -4 | i | -1 | -4 | -4
Cc1cc(C)c(OCC(=O)Nc2ccccc2N2CCCCC2)c(C)c1 | 8 | -11 | -9 | nt | i | nt | nt | -6
Cc1ccc(NC(=O)CCC(=O)n2nc(C)cc2C)c(C)c1 | nt | -1 | -1 | -12 | i | -1 | -8 | -12
COC(=O)c1ccc(C(=O)Nc2ccc(N)cc2N)cc1 | nt | -27 | 2 | 14 | i | 19 | 26 | -19
Cc1ccc(C)c(OCC(=O)N/N=C/c2ccsc2)c1 | 0 | 9 | -6 | -8 | i | -5 | -1 | -10
CC(=O)N1CCN(CC(C)(C)NS(=O)(=O)c2ccccc2)CC1 | nt | 1 | -2 | -14 | nt | nt | nt | -5
COc1ccc(NC(=O)c2cccs2)cc1OC | nt | 2 | -1 | -7 | i | -10 | 2 | 4
CCS(=O)(=O)c1ccc2oc(SCC(=O)N3CCCCC3)nc2c1 | 12 | 0 | -3 | nt | i | 3 | 1 | 9

Screening results (PubChem BioAssay)
